# ClpP mod – qHTS Assay for Activators of ClpP; actives 1.9% (n = 340,000); purified B. subtilis ClpP, FRET peptide cleavage, 20 min; AID 651965, 2013; ATP-dependent Clp protease proteolytic subunit (Bacillus subtilis (strain 168)), P80244; Potency, µM (series often up to 57.5 µM), for inactives: at the top dose activity change, negative = active; active = well fitted falling curve with a large enough effect; inconclusive = small, poorly fitted or top-dose-only effect; inactive = no such curve, though single readings can be large or run the other way; further: potency means the concentration at half of the fitted maximal effect; the source files actives as falling curves though it sought activators and does not explain the sign; nearly all actives have a fitted effect of over 65% in size; many hits overshoot -100%
# Target sequence (P80244 whole entry, looked up): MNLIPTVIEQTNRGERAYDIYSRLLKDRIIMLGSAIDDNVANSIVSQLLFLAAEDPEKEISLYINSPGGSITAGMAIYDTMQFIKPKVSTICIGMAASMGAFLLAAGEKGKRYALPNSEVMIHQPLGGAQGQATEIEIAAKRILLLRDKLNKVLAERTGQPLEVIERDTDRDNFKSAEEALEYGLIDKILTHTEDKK
#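 ClpP 10 microg/mL final, pH 8 Tris/KCl buffer with BSA, glycerol, Tween-20; compound pinned in; FRET-FV substrate; RT 20 min; Ex320/Em430; ΔFRET vs ADEP 5.8 microM, DMSO, no enzyme.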
# PINK1 modulator – A Quantitative High throughput Screen to Identify Chemical Modulators of PINK1 Expression. PINK1 immunofluorescence, high-content cytometry, 24 h. Potency, µM (titrated, usually from 76.6 µM), inactives show top-dose activation (PINK1 increase), usual class: activators. actives 0.2% (n = 410,000). AID 624263, 2012; active = well fitted activation curve with a large enough effect; inconclusive = small, poorly fitted or top-dose-only effect; inactive = flat fitted curve, though single readings scatter; cell line not stated here;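 further: potency means the concentration at half of the fitted maximal effect; % of control where 0% means no effect; nearly all actives have a fitted effect of over 65% in size; a mitochondrial uncoupler was the plate control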
#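 Measures PINK1 amount and localization on or inside mitochondria by immunofluorescence. Stable cells get compounds at 5 concentrations for 24 hours before fixation and staining; CCCP controls included.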
# Sfp PPTase inh – qHTS Assay for Inhibitors of Bacillus subtilis Sfp phosphopantetheinyl transferase (PPTase); 4'-phosphopantetheinyl transferase ffp (Bacillus subtilis), Q9F4F7; Potency, µM, for inactives: max response, negative = inhibition, most hits filed as inhibitors; AID 1490, 2009; Biochemical Sfp PPTase activity, qHTS; actives 3.5% (n = 310,000); active means well fitted inhibition curve with a large enough effect; inconclusive means small, poorly fitted or top-dose-only effect, or another doubt; inactive means no such curve, though single readings can be large or run the other way;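 further: the enzyme is Sfp with the accession as filed and its product quenches rhodamine fluorescence; potency means the concentration at half of the fitted maximal effect; 0% = enzyme reaction without inhibitor and -100% = no enzyme wells; top concentration of the series not given in the record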
#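 Sfp 15 nM + cpd, 15 min RT; start w/ rhodamine-CoA 5 uM, BHQ-2-YbbR 12.5 uM (final); 50 mM Hepes pH 7.6, 10 mM MgCl2, 0.01% NP-40, 0.01% BSA; read 525/598 nm at 0 and 30 min.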
# TRPML1 inh – qHTS for Inhibitors of the Human Mucolipin Transient Receptor Potential 1 (TRPML1); Mucolipin-1 (Homo sapiens), Q9GZU1; TRPML1-inducible cells, Ca2+ dye fluorescence, FDSS; active compounds read low; inhibition of EC80 agonist-evoked calcium signal; activity change, negative = inhibition, % (test concentration not listed); actives 0.02% (n = 390,000); AID 624415, 2012; in the data active means activity change below about -50%; inconclusive means about -30% to -50%; inactive means above about -30%;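 further: stimulus is agonist 54-4 at its EC80 concentration; on the % scale 0 is the no-effect control and ±100 the full control effect; compound concentration not given in the record; the text of the record puts the active cut at -80%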
# Target sequence (Q9GZU1 whole entry, looked up): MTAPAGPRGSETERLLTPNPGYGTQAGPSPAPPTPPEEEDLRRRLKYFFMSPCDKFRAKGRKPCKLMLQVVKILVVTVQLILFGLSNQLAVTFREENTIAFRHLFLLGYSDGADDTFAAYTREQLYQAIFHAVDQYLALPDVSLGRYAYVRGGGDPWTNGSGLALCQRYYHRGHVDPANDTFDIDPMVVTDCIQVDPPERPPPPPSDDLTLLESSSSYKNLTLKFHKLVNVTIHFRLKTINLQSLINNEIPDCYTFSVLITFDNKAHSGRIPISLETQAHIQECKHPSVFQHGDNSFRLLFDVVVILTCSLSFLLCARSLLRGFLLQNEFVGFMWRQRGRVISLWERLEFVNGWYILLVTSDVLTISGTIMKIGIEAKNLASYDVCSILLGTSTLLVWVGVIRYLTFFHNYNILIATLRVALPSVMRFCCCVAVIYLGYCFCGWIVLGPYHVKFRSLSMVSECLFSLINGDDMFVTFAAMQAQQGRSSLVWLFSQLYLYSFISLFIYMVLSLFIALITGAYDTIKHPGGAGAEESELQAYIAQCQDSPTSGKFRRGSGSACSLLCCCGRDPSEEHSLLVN
#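 Tet-induced TRPML1-DL cells loaded with Ca8 no-wash calcium dye were read kinetically on FDSS. Compound addition was followed by EC80 agonist 54-4 (4 uM final); inhibition was read over 110 s.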
# TRPML1 agonist – qHTS for Agonists of the Human Mucolipin Transient Receptor Potential 1 (TRPML1); Mucolipin-1 (Homo sapiens), Q9GZU1; TRPML1-expressing cells, Ca2+ dye fluorescence, FDSS; host cell line not named in the record; reference of the full effect not given here; activation, % (no concentration beside the values); actives 0.12% (n = 410,000); in the data active = activation above about 50%; inconclusive = about 30% to 50%; inactive = below about 30%; further: 0% is about no effect; the text of the record puts the active cut at 80%
#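 Tet-induced TRPML1-DL cells, 1,500 per well, cultured overnight, were loaded with a no-wash Ca2+ dye for 45–90 min. Calcium fluorescence was recorded on the FDSS for 110 s after compound addition, before the EC80 agonist (4 uM 54-4) was added.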
# TRPV1 potentiator – HTS Assay for Compounds that Act as Potentiators of the Vanilloid Receptor 1; Transient receptor potential cation channel subfamily V member 1 (Homo sapiens), Q8NER1; TRPV1-expressing cells, Fluo-8 calcium influx, capsaicin EC20 potentiation; host cell line not named in the record; control for the full effect not named in the record; potentiation, % at 8.33 µM; actives 0.02% (n = 320,000); active means potentiation above 80%; inconclusive means 30% to 80%; inactive means below 30%; further: 0% is about no effect
#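 Fluo-8 calcium influx in TRPV1-expressing cells, kinetic read (ex 480/em 520 nm). Compound added and read 3 min for agonist activity, followed by capsaicin at EC20 final and 2 min further read for enhancement.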
# Menin MLL FP FL – qHTS Assay for Inhibitors Targeting the Menin-MLL Interaction in MLL Related Leukemias: Competition With Fluorescein Labeled MLL-derived Peptide | FP activity change, % at 61.4 µM | 290,000 tested, under 10 active | Fluorescence polarization, fluorescein-MLL peptide displacement from menin | AID 1766, 2009; inconclusive = falling polarisation curve, or a change in total fluorescence; inactive = total fluorescence flat and polarisation flat or rising; no compound was filed as active; the % refers to the polarisation; negative = inhibition;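 further: % of control where 0% means no effect; inhibitors lower the polarisation; unlabelled MLL peptide was the positive control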
# The depositor's hits bear a star; u = inconclusive; x = no result given; & = joins results of further samples; [ ] = remark or other dose.
SMILES,ClpP mod,PINK1 modulator,Sfp PPTase inh,TRPML1 inh,TRPML1 agonist,TRPV1 potentiator,Menin MLL FP FL
COc1ccccc1OCC(=O)NCC1CCCN(Cc2cnn(C(C)C)c2)C1 (configuration not stated),-0.6%,-1.1%,15.3%,6.5,-0.5,u,x
COc1ccc(NC2CCCN(C(=O)CCN3CCOCC3)C2)cc1 (configuration not stated),-10.5%,1.9%,8.3%,3.4,-0.4,-2.9,x
Cc1ccc2nc(/C(C#N)=C\c3ccc(Oc4ccc(C(F)(F)F)cc4[N+](=O)[O-])cc3)[nH]c2c1,-3.5%,3.5%,-3.2%,3.8,0.3,3.0,-9.8
COc1ccc(/C=N/Nc2nonc2N)c(OC)c1,6.6%,0.1%,-12.3%,4.5,1.3,-4.3,2.2
CC(C)NC(=O)c1ccccc1NC(=O)Cc1ccc([N+](=O)[O-])cc1,70.0%,0.4%,7.9%,5.1,-0.9,-10.9,-2.6
CCC(NC(=O)Cc1c(C)c2c(cc(C)c3c(C)c(C)oc32)oc1=O)C(=O)O (configuration not stated),3.7%,2.8%,4.0%,-2.5,-0.6,9.4,6.3
CCc1nc(N2CCCC2C(=O)O)c2oc3ccccc3c2n1 (configuration not stated),-9.0%,2.3%,15.8%,18.4,-0.4,7.0,-4.0
C/C(=N\N=C(/N)SC1CC(=O)N(c2cccc(Cl)c2)C1=O)c1cccs1 (configuration not stated),0.0%,-3.2%[38.3 µM],7.2%,10.5,-0.4,28.4,1.6
Clc1cccc(OCCn2ccnc2)c1,1.2%,-0.7%,9.2%,5.3,-0.2,-5.5,-3.6
CC1CCc2cc(F)ccc2N1C(=O)CSc1nnc(-c2cccs2)n1C (configuration not stated),-1.6%,22.7%[38.3 µM],9.3%,2.2,-0.4,-19.1,0.8
CC(=O)Nc1ccc(OC(=O)c2cc3ccccc3oc2=O)cc1,35.2%,1.6%,9.8%,20.5,0.0,-2.0,0.5
CCc1cccc(NC(=S)N(CCN(C)C)C(C)c2ccncc2)c1 (configuration not stated),0.0%,-0.2%,19.2%,4.4,-1.0,-18.8,-7.2
CC1(C)CC(=O)c2c(nc(SCC(=O)Nc3nsc(-c4ccccc4)n3)c(C#N)c2-c2ccccc2)C1,-0.9%,3.8%,9.7%,4.5,-0.1,0.7,10.8
COc1ccccc1N1CCN(C2CC(=O)N(C)C2=O)CC1 (configuration not stated),x,1.2%,4.2%,32.4,-0.4,13.5,8.4
CCc1ccc(NC(=O)CN2CCCN(Cc3cccc(Cl)c3)S2(=O)=O)cc1,-0.5%,0.1%,x,11.7,3.9,x,x
CCCc1cc(=O)[nH]c(SCC(=O)Nc2nonc2C)n1,x,1.9%,2.9%,-11.4,-0.1,4.3,-5.5
CN1CCN(C(=O)c2ccc(NS(=O)(=O)c3cccc([N+](=O)[O-])c3)cc2)CC1,x,-2.4%,x,-21.2,0.9,0.6,x
Cc1cc(S(=O)(=O)N2CCOCC2)ccc1OCC(=O)N1CCC(C)CC1,x,-1.6%,11.1%,-15.5,0.0,-23.2,3.7
CCN(CC(O)CON=C1c2ccccc2-c2ccccc21)S(=O)(=O)c1ccc(C)cc1 (configuration not stated),1.1%,15.7%,2.4%,24.8,1.1,-14.3,-1.8
O=C(Nc1cc(C(F)(F)F)ccc1-n1cnc2ccccc21)c1ccccc1,-1.8%,0.3%,19.1%,10.3,0.4,-9.8,-0.2
COc1cccc(-c2[nH]nc3c2C(c2ccc(C)o2)C(C#N)=C(N)O3)c1 (configuration not stated),-6.2%,0.1%,-10.8%,0.4,0.6,11.8,2.4
CCN(CC(=O)NCc1cccs1)C(=O)/C=C/c1ccc(OC)c(OC)c1,u,-3.3%,x,0.5,0.7,1.9,x
O=C(Cn1nnc2ccccc21)OCC(=O)c1ccc(Cl)c(Cl)c1,1.1%,2.0%,6.0%,3.6,-1.4,4.1,2.3
COc1ccc([N+](=O)[O-])cc1NC(=O)CCc1ccccc1,1.5%,-0.1%,0.6%,21.6,1.1,10.8,3.2
CC1(C)Cc2cccc(OCC(=O)N3CCN(S(=O)(=O)c4ccc(F)cc4)CC3)c2O1,-4.3%,0.9%,3.8%,13.8,0.7,-11.1,0.3
O=C(O)c1cc(N/N=C2/CC(c3ccccc3)Oc3ccccc32)ccc1Cl (configuration not stated),u,5.5%,12.8%,29.7,1.8,6.1,7.2
CCN1CCN(C(=O)c2oc(=O)c3ccccc3c2-c2ccc(C)cc2)CC1,-1.5%,-4.6%,5.2%,-12.6,1.0,4.3,2.5
CCn1ncc(Br)c1C(=O)Nc1ccc2c(c1)OCCO2,0.4%,2.1%,16.6%,-14.7,0.9,1.8,-5.8
O=C(CSc1nnc(-c2cccnc2)n1Cc1ccco1)NCc1ccc2c(c1)OCO2,-0.1%,-7.2%[38.3 µM],-4.2%,8.7,-0.5,-3.0,5.7
CCOc1ccc(-c2nnc(-c3ccccc3)n2-c2ccccc2)cc1,-3.9%,-3.3%,-12.8%,4.7,0.5,1.4,-2.1
CCN(CC)c1ccc(-c2c(C#N)c(N)nc(OC)c2C#N)cc1,31.6µM*,23.4%[38.3 µM],13.8%,21.5,4.7,-12.0,13.6
CC(OC(=O)c1ccccc1)C(=O)NCCC1=CCCCC1 (configuration not stated),x,-0.9%,12.4%,-0.4,-0.7,-26.5,1.7
Cc1cc(SCC(=O)N/N=C/c2ccc(O)cc2O)nc2ccccc12,x,2.1%,16.6%,-7.3,-0.1,-6.0,4.0
CC1(Oc2ccc(Cl)cc2)CCN(Cc2ccc(OC(F)(F)F)cc2)C1 (configuration not stated),0.3%,u,x,x,-0.9,x,x
c1ccc(-n2ncc3c(NCc4ccccn4)ncnc32)cc1,12.6µM*,6.0%[38.3 µM],16.2%,12.2,0.0,x,2.5
Nc1nnc(SCCOc2ccc(Br)cc2)s1,1.9%,0.4%,20.4%,-5.9,1.5,-10.6,-4.6
COC(=O)N(C)C[C@@H]1OCc2cnnn2CCCC(=O)N([C@@H](C)CO)C[C@@H]1C,-1.8%,2.0%,x,-3.7,-0.2,x,x
O=C(Nc1nc2cc3c(cc2s1)OCO3)c1ccco1,x,5.8%,-10.2%,-19.1,0.7,1.4,-1.6
Cc1cccc(NC(=O)c2ccc(S(=O)(=O)NCc3cccnc3)cc2)c1C,0.6%,3.1%,10.4%,21.1,-1.2,-1.6,x
O=C(c1ccccc1)N1CCc2cc(CNS(=O)(=O)c3ccccc3Cl)ccc21,1.9%,14.4%,x,-8.0,0.4,x,x
Cc1cc(NC(=O)COC(=O)COc2ccc(Cl)c(C)c2)no1,1.7%,1.4%,x,18.7,0.6,x,x
COc1ccccc1NC(=O)N(Cc1ccco1)Cc1cc2cccc(C)c2[nH]c1=O,-4.4%,-0.8%,5.0%,41.8,-0.4,-5.3,2.0
Cc1ccc(NC(=O)C2C(=O)N(CCO)C3(C)CC2c2ccccc2O3)cc1 (configuration not stated),-1.3%,u,1.8%,-11.1,0.2,-0.3,-6.4
CCCCC(CCC(=O)Nc1cc([N+](=O)[O-])ccc1O)C(=O)O (configuration not stated),x,0.7%,31.4%[activator],-13.3,-0.6,-2.4,2.1
O=C1NC[C@@H](CCCCN2CCN(Cc3ccccc3)C(=O)C2=O)N(Cc2ccccc2)C1=O,1.3%,0.0%,x,x,-0.5,x,x
c1ccc(OCCNc2nc(NCC3CC3)nc3ccsc23)cc1,-18.6%,u,x,x,2.7,x,x
O=C(Oc1ccccc1)N(c1ccccc1)c1ccccc1,x,1.3%,-4.7%,2.5,0.9,-10.5,1.6
O=S1(=O)CC(N2CC=CC2)CN1Cc1cn(Cc2ccc(F)cc2)nn1 (configuration not stated),0.2%,0.2%,x,x,-0.2,x,x
O=S1(=O)CCOCCCN1Cc1cccc(C(F)(F)F)c1,2.1%&1.2%,0.9%,1.0%,-13.6,-0.5&0.0,-6.6,3.0
N#Cc1ccc(NC(=O)COC(=O)c2cccc(S(=O)(=O)N3CCCC3)c2)cc1,0.8%,1.9%,x,12.2,0.2,x,x
CSc1nc(Oc2ccc(F)cc2F)cc(C(F)(F)F)n1,-1.5%,15.0%,9.5%,18.9,2.4,18.6,-0.9
COc1cc(NC(=O)c2ccc([N+](=O)[O-])cc2)c(OC)cc1NC(=O)CC(C)C,-1.4%,1.8%,-1.4%,-17.9,1.3,1.8,1.2
CCCN(CCC)C(=O)CSc1nc2c(sc(=S)n2-c2ccc(OCC)cc2)c(=O)[nH]1,0.6%,6.7%,12.0%,4.3,-0.4,-0.8,0.3
COc1ccc(C(=O)Nc2cccc(/C=C(/CCC(=O)O)c3nc4ccccc4s3)c2)cc1,x,1.8%,x,-19.7,0.0,x,x
O=C(/C=C/c1ccc2c(c1)OCCO2)N1CCN(c2ccc(F)cc2)CC1,-16.7%,-0.8%,1.7%,x,x,-8.7,0.1
CN(C)CC(O)COc1ccc(-c2ccc(C#N)cc2)cc1 (configuration not stated),x,x,15.5%,x,x,6.5,0.0
CC(C)N1C(=O)CCC1C(=O)N1CCN(c2ccc(F)cc2)CC1 (configuration not stated),-0.6%,-0.5%,21.4%,x,x,u,0.3
CCOc1cc(C2c3c(oc4cc(C)c(Cl)cc4c3=O)C(=O)N2Cc2ccco2)ccc1O (configuration not stated),0.3%,24.6%[38.3 µM],1.2%,3.4,-0.2,16.4,0.5
Cn1c(=O)c2cnc(-c3ccc(C(F)(F)F)cc3)nc2n(C)c1=O,0.6%,3.5%,5.4%,-5.5,1.4,22.0,0.0
O=C(Nc1ccc(NC(=O)c2ccco2)nc1)c1cccnc1,-1.3%,0.1%,20.8%,6.6,0.8,-3.1,0.4

# Screening results as filed in PubChem BioAssay.
